Screening data from PubChem BioAssay.
D2 potentiator – positive allosteric modulators of human D2 dopamine receptor; hit rate 0.23% among 360,000; potentiation, % (concentration not given with the values); DiscoveRx D2 beta-arrestin cells, luminescence, 90 min; 100% = 57 uM dopamine signal; active = potentiation of 50% or more; inconclusive = 30% to 50%; inactive = 30% or less;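 further: compound concentration not given in the record; tested on top of an EC20 dose of dopamine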
Target sequence (P14416 whole entry, looked up): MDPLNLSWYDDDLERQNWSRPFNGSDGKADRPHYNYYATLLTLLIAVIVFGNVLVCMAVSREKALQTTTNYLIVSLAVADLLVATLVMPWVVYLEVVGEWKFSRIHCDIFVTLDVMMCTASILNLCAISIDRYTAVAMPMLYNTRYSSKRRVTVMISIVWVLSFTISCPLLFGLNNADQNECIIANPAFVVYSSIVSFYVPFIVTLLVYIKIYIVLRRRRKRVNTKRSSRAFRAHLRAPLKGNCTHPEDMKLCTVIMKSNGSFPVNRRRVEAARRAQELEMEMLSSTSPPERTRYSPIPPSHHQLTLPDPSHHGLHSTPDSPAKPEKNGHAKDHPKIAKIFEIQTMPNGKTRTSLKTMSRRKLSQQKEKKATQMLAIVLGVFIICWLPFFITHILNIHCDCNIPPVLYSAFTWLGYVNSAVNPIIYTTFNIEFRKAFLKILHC
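D2 cells co-treated with compound plus 50 nM dopamine (EC20) for 90 min at 37 deg C to detect potentiation. Beta-arrestin recruitment was read as enzyme-fragment luminescence after 1 h at ambient temperature. Full response was set by 57 uM dopamine.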
PINK1 expr mod – PINK1 expression modulation; PINK1 immunofluorescence, high-content cytometry, 24 h; Potency, µM (doses to about 76.6 µM), for inactives: at the top dose activation (PINK1 increase), usual class: activators; hit rate 0.2% among 410,000; AID 624263; active = well fitted activation curve with a large enough effect; inconclusive = small, poorly fitted or top-dose-only effect; inactive = flat fitted curve, though single readings scatter; cell line not stated here;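 further: potency means the concentration at half of the fitted maximal effect; % of control where 0% means no effect; nearly all actives have a fitted effect of over 65% in size; a mitochondrial uncoupler was the plate control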
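Decision-based qHTS: stable cells, 24 h exposure to five compound concentrations, CCCP as control. Fixed cells stained for PINK1 plus nuclear, mitochondrial and cell markers, cytometer read.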
Six1-Eya2 blk – Six1/Eya2 interaction inhibition. Q15475+O00167. AlphaScreen GST-Six1/His-Eya2 binding, biochemical; stronger effect = lower value; control for the full effect not named in the record. activity change, % (test concentration not listed). hit rate 0.56% among 360,000; in the data active = activity change below about -65%; inconclusive = about -30% to -65%; inactive = above about -30%; further: on the % scale 0 is the no-effect control and ±100 the full control effect; compound concentration not given in the record
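Homogeneous AlphaScreen proximity assay pairing GST-Six1 with His-tagged Eya2 (added as 5X mix: 250 nM and 500 nM) in 50 mM Tris pH 8.0, 300 mM NaCl, 1 mM TCEP. Glutathione donor and nickel acceptor beads; 1 h, 37 °C, dark.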
Sfp PPTase inh – inhibitors of Bacillus subtilis Sfp phosphopantetheinyl transferase. Biochemical Sfp PPTase activity, qHTS. Potency, µM, for the others: max response, negative = inhibition, most hits filed as inhibitors. hit rate 3.5% among 310,000; active means well fitted inhibition curve with a large enough effect; inconclusive means small, poorly fitted or top-dose-only effect, or another doubt; inactive means no such curve, though single readings can be large or run the other way;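 further: the enzyme is Sfp with the accession as filed and its product quenches rhodamine fluorescence; potency means the concentration at half of the fitted maximal effect; 0% = enzyme reaction without inhibitor and -100% = no enzyme wells; top concentration of the series not given in the record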
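With Hepes-Na pH 7.6 buffer containing 10 mM MgCl2, Sfp (15 nM) modified BHQ-2-YbbR (12.5 uM) using rhodamine-CoA (5 uM). Two reads 30 minutes apart at 525/598 nm yielded each well's rate.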
D2 ag – agonists of human D2 dopamine receptor (beta-arrestin); P14416; DiscoveRx PathHunter D2 beta-arrestin, luminescence, 90 min; 100% = 57 uM dopamine signal; activation, % (test concentration not listed); hit rate 0.084% among 360,000; in the data active = activation above about 40%; inconclusive = about 15% to 40%; inactive = below about 15%; further: compound concentration not given in the record; the text of the record calls up to 30% inactive
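Agonist mode: compounds alone added to overnight-plated D2 PathHunter cells for 90 min at 37 C, with 57 uM final dopamine (EC100) defining full response. Beta-arrestin recruitment detected by chemiluminescent reagent, read after 1 h at ambient temperature.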
TRPV1 PAM – human TRPV1 potentiation | Q8NER1 | TRPV1-expressing cells, Fluo-8 calcium influx, capsaicin EC20 potentiation; host cell line not named in the record; control for the full effect not named in the record | potentiation, % at 8.33 µM | hit rate 0.02% among 320,000; active means potentiation above 80%; inconclusive means 30% to 80%; inactive means below 30%; further: 0% is about no effect
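Fluo-8 calcium influx in TRPV1-expressing cells, kinetic read (ex 480/em 520 nm). Compound added and read 3 min for agonist activity, followed by capsaicin at EC20 final and 2 min further read for enhancement.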
CtBP-E1A inh – CtBP/E1A binding inhibition; AlphaScreen GST-E1A/His-CtBP binding, 1536-well; stronger effect = lower value; control for the full effect not named in the record; activity change, % (no concentration beside the values); hit rate 0.49% among 340,000; AID 651724; in the data active means activity change below about -65%; inconclusive means about -30% to -65%; inactive means above about -30%; further: on the % scale 0 is the no-effect control and ±100 the full control effect; compound concentration not given in the record
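Steps: dispense buffer (Tris pH 8.0, NaCl 300 mM, TCEP 1 mM, BSA, Tween 20); add 5X protein mix (GST-E1A, His-CtBP, 125 nM each); pin 23 nL compound; 2 h at 37 °C, dark; add 5X beads (50 ug/mL); 1 h; read.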
Numbers without * were called inactive; ? = inconclusive; · = not tested or not shown; & = joins results of further samples; [ ] = remark or other dose. Compounds as they come. Share with any hit: about 3.7%.

1) O=C(CSc1nc2c(c(=O)n1-c1ccccc1)SCC2)NCC1CCCO1 (stereo not given)
2) CC(=O)N1CCN(c2cc(N3CCc4ccccc4C3)c(F)cc2[N+](=O)[O-])CC1
3) CC(C)c1ccc(NC2CCCN(C(=O)CCN3CCCCO3)C2)cc1 (stereo not given)
4) COc1nc(NCCc2ccc(OC)c(OC)c2)nc(Nc2ccccc2)n1
5) Cc1ccc(OCC(=O)NC(=S)Nc2ccc3c4c(cccc24)CC3)cc1
6) O=C(OC1CCOC1=O)c1ccc(NS(=O)(=O)c2cccs2)cc1 (stereo not given)
7) CCC(C)(C)C1CCc2[nH]nc(C(=O)NC3CCCCC3)c2C1 (stereo not given)
8) COc1cc2nc(CN3CCN(S(=O)(=O)c4ccccc4C(F)(F)F)CC3)[nH]c(=O)c2cc1OC
Assay by compound	1	2	3	4	5	6	7	8
D2 potentiator	5	-14	-2	3	-9	-3	-10	-5
PINK1 expr mod	1.6%	-5.0%[38.3 µM]	1.4%	5.4%	4.5%	1.6%	11%	2.1%
Six1-Eya2 blk	13	-25	-2	?	-1	-6	4	?
Sfp PPTase inh	14%	-29%	-5%	-3%	-4%	15%	·	·
D2 ag	2.4	-1.0	-7.1	-2.3	-2.6	-1.6	-2.0	-3.3
TRPV1 PAM	1	-15	5	4	2	-5	-127	·
CtBP-E1A inh	-6	?	3	-12	4	7	1	?

9) COc1ccc(NC(=O)c2ccc3c(c2)OCO3)cc1S(=O)(=O)N1CCOCC1
10) Cc1onc(-c2c(Cl)cccc2Cl)c1-c1nc2cc(Cl)ccc2c(=O)o1
11) Nc1ccc2oc(-c3ccccc3Cl)cc(=O)c2c1O
12) Cc1nn(-c2ccccc2)c(C)c1NC(=O)COC(=O)c1ccc(Cl)c(S(N)(=O)=O)c1
13) O=C(Cn1cc([N+](=O)[O-])nc1[N+](=O)[O-])N1CCN(c2ccccc2)CC1
14) CCOC(=O)c1sc(C)c2c1NC(c1ccc(N(C)C)cc1)NC2=O (stereo not given)
15) COc1cc(/C=N/Nc2nc3ccccc3[nH]2)cc(Br)c1OCC(=O)N(C)C
16) CCOc1ccc(CNC(=O)CCSCc2ccccc2F)cc1OC
Assay by compound	9	10	11	12	13	14	15	16
D2 potentiator	6	1	2	-4	23	22	-17	-34
PINK1 expr mod	1.6%	4.2%	-1.7%	1.4%	2.4%	?	1.2%	0.2%
Six1-Eya2 blk	-21	4	-29	-12	10	-16	?	10
Sfp PPTase inh	·	-21%	9%&0%	·	9%	3%	-111%	2%
D2 ag	0.4	-2.1	4.1	-6.3	?	-0.9	2.9	1.4
TRPV1 PAM	·	·	13	15	-10	-17	1	-9
CtBP-E1A inh	-5	3	-28	-1	3	-13	-23	-12

Values by screen from above.
Entries 10 to 16 in Six1-Eya2 blk read 4, -29, -12, 10, -16, ?, 10

(continued)
17) N#Cc1ccc(/C=N/NC(=O)c2cc(-c3cccs3)nc3ccccc23)cc1
18) CCCCn1ccnc1C(=O)c1cccc(S(=O)(=O)N2c3ccccc3CC2C)c1 (stereo not given)
19) CCOc1ccccc1NC1c2ccccc2C(=O)N1Cc1ccco1 (stereo not given)
20) C#CCOCCOCCOCCNc1nc(N2CCN(C(=O)CCCCCCCCCCNC(=O)[C@H]([C@@H](C)CC)n3cc(CCCCN=C(N)N)nn3)CC2)nc(N2CCN(C(=O)CCCCCCCCCCNC(=O)[C@H](CO)n3cc(CCCCCN)nn3)CC2)n1
21) CCOc1ncccc1C(=O)OCC(=O)c1cc(OC)ccc1OC
22) O=C(NCCO)c1c(-c2ccc3c(c2)OCO3)noc1-c1ccsc1
23) Fc1ccc(CSc2nc3ccccc3[nH]2)c2ccccc12
24) O=C(NCc1ccccc1)OCCN1CCN(Cc2ccccc2)CCC1=O
Assay by compound	17	18	19	20	21	22	23	24
D2 potentiator	-3	27	-5	-14	8	·	-1	-8
PINK1 expr mod	3.5%	-1.2%	0.8%	-1.5%	2.3%	-0.6%	?	-0.4%
Six1-Eya2 blk	4	-4	-4	-14	1	3	9	-12
Sfp PPTase inh	?	3%	-7%	·	-11%	·	24%	-16%&-9%
D2 ag	2.5	-1.0	-4.8	2.0	-4.6	-3.2	-0.5	-1.4
TRPV1 PAM	2	10	-8	12	-1	·	-17	20
CtBP-E1A inh	19	-2	-14	?	14	0	13	-7

Next part, overlapping the part above by four compounds.
21) CCOc1ncccc1C(=O)OCC(=O)c1cc(OC)ccc1OC
22) O=C(NCCO)c1c(-c2ccc3c(c2)OCO3)noc1-c1ccsc1
23) Fc1ccc(CSc2nc3ccccc3[nH]2)c2ccccc12
24) O=C(NCc1ccccc1)OCCN1CCN(Cc2ccccc2)CCC1=O
25) OC(c1ccccc1)c1nc(-c2cnc3ccccc3c2)cs1 (stereo not given)
26) Cc1cc(=S)nc(-c2ccccn2)[nH]1
27) Cc1ccc(C(=O)NCCNS(C)(=O)=O)cc1
28) O=c1cc(Cl)nc2ccccn12
29) COc1cc(OC)cc(C(=O)Nc2ccc(-c3nc4ccccc4o3)c(O)c2)c1
30) CC(C)(C)C(=O)Nc1ccc(-c2cnco2)cc1
31) COc1cc(NC(=O)C2CCCN2S(=O)(=O)c2cccc3cccnc23)cc(OC)c1OC (stereo not given)
32) CN(C)c1ccc(C(=O)Nc2nnc(-c3ccc(Cl)cc3)o2)cc1
Assay by compound	21	22	23	24	25	26	27	28	29	30	31	32
D2 potentiator	8	·	-1	-8	2	-19	-1	-2	12	-4	-7	-8
PINK1 expr mod	2.3%	-0.6%	?	-0.4%	1.1%	1.2%	1.0%	-0.5%	-3.0%[38.3 µM]	0.1%	12%	8.1%
Six1-Eya2 blk	1	3	9	-12	1	-85*	-2	1	3	-8	-1	-9
Sfp PPTase inh	-11%	·	24%	-16%&-9%	·	35µM*	12%	·	-15%	20%	15%	-9%
D2 ag	-4.6	-3.2	-0.5	-1.4	4.3	4.9	-0.3	-2.0	4.3	-3.6	-2.4	-5.5
TRPV1 PAM	-1	·	-17	20	·	6	-6	·	-47	-15	-1	-8
CtBP-E1A inh	14	0	13	-7	3	-69*	3	3	16	-5	6	-4

33) Cc1cc(CCN2CCC(=O)NC2=O)ccc1OC(C)C
34) Cc1c(Br)c([N+](=O)[O-])nn1CC(=O)NCc1cccs1
35) Cc1cccc(-c2nnc(SCC#N)n2Cc2ccccc2)c1
36) COc1ccccc1/C=C1\SC(=S)N(CCC(=O)NNC(=O)c2ccccc2O)C1=O
37) O=C(Nc1cccc(S(=O)(=O)NC2=NCCC2)c1)c1cn(-c2ccccc2)nc1-c1ccc(F)cc1
38) COc1ccc(NC(=O)COC(=O)/C=C/c2cccs2)c(OC)c1
39) COc1cccc(NC(=O)CN2CCC(C)CC2)c1
40) COCCSc1ccccc1C(=O)N1CCN(c2ccccc2OC)CC1
Assay by compound	33	34	35	36	37	38	39	40
D2 potentiator	0	-11	4	4	4	-8	-45	0
PINK1 expr mod	·	0.4%	-2.4%	3.3%	-0.6%	0.9%	·	-0.2%
Six1-Eya2 blk	-1	12	-1	-27	-5	-2	-4	1
Sfp PPTase inh	-1%	0%	0%	?	·	·	-2%	-13%
D2 ag	-1.0	0.4	-2.0	-2.5	-1.6	-4.8	-2.3	-2.4
TRPV1 PAM	-22	-21	·	4	·	-2	-1	-8
CtBP-E1A inh	9	-2	-5	-11	2	·	7	·

41) O=C1NC[C@H](Cc2ccc(O)cc2)N(C[C@@H]2CCCN2C[C@H](Cc2ccc(O)cc2)N2C[C@H](Cc3ccccc3)N(CC3CCCCCC3)C(=O)C2=O)C1=O
42) Cc1ccc(NC(=O)CSCC(=O)Nc2sccc2C#N)cc1
43) CCCOC(=O)C1[C@H]2C(=O)N(Cc3ccco3)C[C@]23C=C[C@H]1O3 (stereo not given in full)
44) COc1ccc(-c2csc(Nc3ccc(Oc4ccccc4)cc3)n2)cc1
45) COc1cc(C(=O)Nc2ccc(C(=O)c3cccs3)cc2)cc(OC)c1OC
46) Cc1c(C)n(C(=O)CN2CCC(C)CC2)c2ccccc12
47) O=Cc1c(N2CCN(CCO)CC2)nc2ccccn2c1=O
48) Cc1ccc(C(=O)NN2C(=O)c3ccc(S(=O)(=O)c4ccc(C(=O)O)cc4)cc3C2=O)cc1
Assay by compound	41	42	43	44	45	46	47	48
D2 potentiator	·	-6	-19	-8	?	-18	-9	-26
PINK1 expr mod	0.8%	-1.6%	1.3%	8.0%	1.9%	?	0.1%	-0.1%
Six1-Eya2 blk	-11	-6	3	-25	-3	0	-4	-5
Sfp PPTase inh	·	·	?	·	18%	-25%	27%	5%
D2 ag	·	-3.7	-4.3	-1.6	4.8	-1.6	-4.5	-20
TRPV1 PAM	·	-4	9	·	-10	-8	1	10
CtBP-E1A inh	2	-3	2	-24	·	-2	3	-5

49) COc1cc(OC)cc(-c2c(-c3cccs3)c3cc(-c4ccc5c(c4)OCCO5)ccc3n2C)c1
50) Cc1cc(OCCn2ccnc2)cc(C)c1Cl
51) Cc1cc(C)c(C#N)c(SCC(=O)C(C)(C)C)n1
52) Cc1nnsc1C(=O)NNc1ccc(C(C)(C)C)cc1
53) COc1cccc(NC2=CC(=O)CC(C)(C)C2)c1
Assay by compound	49	50	51	52	53
D2 potentiator	1	-1	-9	-32	10
PINK1 expr mod	0.3%	0.0%	0.1%[38.3 µM]	15%	·
Six1-Eya2 blk	-7	-12	5	5	-11
Sfp PPTase inh	·	11%	-23%	-2%	2%
D2 ag	0.1	4.6	-3.3	-17	-0.1
TRPV1 PAM	-11	11	-3	·	9
CtBP-E1A inh	-4	·	12	9	-15

Part of the list above, with tabs.
No.	SMILES	D2 potentiator	PINK1 expr mod	Six1-Eya2 blk	Sfp PPTase inh	D2 ag	TRPV1 PAM	CtBP-E1A inh
49	COc1cc(OC)cc(-c2c(-c3cccs3)c3cc(-c4ccc5c(c4)OCCO5)ccc3n2C)c1	1	0.3%	-7	·	0.1	-11	-4
50	Cc1cc(OCCn2ccnc2)cc(C)c1Cl	-1	0.0%	-12	11%	4.6	11	·
51	Cc1cc(C)c(C#N)c(SCC(=O)C(C)(C)C)n1	-9	0.1%[38.3 µM]	5	-23%	-3.3	-3	12
